# Screening results as filed in PubChem BioAssay.
# TRPML1 inh: qHTS for Inhibitors of the Human Mucolipin Transient Receptor Potential 1 (TRPML1). 390,000 compounds, 0.02% hits. Mucolipin-1 (Homo sapiens), Q9GZU1. activity change, negative = inhibition, % (concentration not given with the values). TRPML1-inducible cells, Ca2+ dye fluorescence, FDSS; active compounds read low; inhibition of EC80 agonist-evoked calcium signal; in the data active means activity change below about -50%; inconclusive means about -30% to -50%; inactive means above about -30%;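 note: stimulus is agonist 54-4 at its EC80 concentration; % is set by controls: 0 for no effect and ±100 for the full control effect; the text of the record puts the active cut at -80%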
# Target sequence (Q9GZU1 whole entry, looked up): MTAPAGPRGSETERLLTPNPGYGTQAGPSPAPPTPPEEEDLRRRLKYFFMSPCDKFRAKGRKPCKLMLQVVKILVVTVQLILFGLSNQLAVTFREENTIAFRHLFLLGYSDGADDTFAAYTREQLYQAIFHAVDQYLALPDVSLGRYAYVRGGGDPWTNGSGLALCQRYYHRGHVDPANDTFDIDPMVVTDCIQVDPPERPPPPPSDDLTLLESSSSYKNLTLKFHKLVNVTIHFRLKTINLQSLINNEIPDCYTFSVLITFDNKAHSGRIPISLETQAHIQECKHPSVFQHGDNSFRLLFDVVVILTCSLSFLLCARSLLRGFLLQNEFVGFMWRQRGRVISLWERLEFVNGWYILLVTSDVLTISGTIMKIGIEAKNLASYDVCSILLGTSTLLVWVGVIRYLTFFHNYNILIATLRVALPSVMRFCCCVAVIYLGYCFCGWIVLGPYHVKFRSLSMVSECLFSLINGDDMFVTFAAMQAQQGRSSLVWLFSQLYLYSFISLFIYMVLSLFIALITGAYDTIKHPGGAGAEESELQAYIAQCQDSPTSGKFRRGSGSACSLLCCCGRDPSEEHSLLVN
#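 Tet-induced TRPML1-DL cells loaded with Ca8 no-wash calcium dye were read kinetically on FDSS. Compound addition was followed by EC80 agonist 54-4 (4 uM final); inhibition was read over 110 s.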
# Sfp inh: qHTS Assay for Inhibitors of Bacillus subtilis Sfp phosphopantetheinyl transferase (PPTase); 4'-phosphopantetheinyl transferase ffp (Bacillus subtilis), Q9F4F7; Biochemical Sfp PPTase activity, qHTS; Potency, µM, without a hit: max response, negative = inhibition, usual class: inhibitors; 310,000 compounds, 3.5% hits; AID 1490, 2009; active = well fitted inhibition curve with a large enough effect; inconclusive = small, poorly fitted or top-dose-only effect, or another doubt; inactive = no such curve, though single readings can be large or run the other way;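 note: the enzyme is Sfp with the accession as filed and its product quenches rhodamine fluorescence; potency is the fitted concentration of half-maximal effect; 0% = enzyme reaction without inhibitor and -100% = no enzyme wells; top concentration of the series not given in the record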
#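 With Hepes-Na pH 7.6 buffer containing 10 mM MgCl2, Sfp (15 nM) modified BHQ-2-YbbR (12.5 uM) using rhodamine-CoA (5 uM). Two reads 30 minutes apart at 525/598 nm yielded each well's rate.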
# PINK1 modulator: A Quantitative High throughput Screen to Identify Chemical Modulators of PINK1 Expression; AID 624263, 2012; Potency, µM (top dose mostly 76.6 µM), without a hit: top-dose activation (PINK1 increase), usual class: activators; PINK1 immunofluorescence, high-content cytometry, 24 h; 410,000 compounds, 0.2% hits; active = well fitted activation curve with a large enough effect; inconclusive = small, poorly fitted or top-dose-only effect; inactive = flat fitted curve, though single readings scatter; cell line not stated here;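 note: potency is the fitted concentration of half-maximal effect; % of control where 0% means no effect; nearly all actives have a fitted effect of over 65% in size; a mitochondrial uncoupler was the plate control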
#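 Stable cell line treated 24 h with compounds at 5 concentrations (CCCP controls), then fixed and immunostained for PINK1 plus nuclear and cell stains; PINK1 immunofluorescence quantified by laser-scanning microplate cytometry.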
# TRPML1 agonist: qHTS for Agonists of the Human Mucolipin Transient Receptor Potential 1 (TRPML1). 410,000 compounds, 0.12% hits. TRPML1-expressing cells, Ca2+ dye fluorescence, FDSS; host cell line not named in the record; reference of the full effect not given here. activation, % (test concentration not listed). AID 624414, 2012. Mucolipin-1 (Homo sapiens), Q9GZU1; in the data active = activation above about 50%; inconclusive = about 30% to 50%; inactive = below about 30%; note: 0% is about no effect; the text of the record puts the active cut at 80%
#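 In this qHTS format, compounds were pin-transferred onto Ca8-dye-loaded TRPML1-DL cells induced with Tet overnight, and intracellular Ca2+ fluorescence was recorded kinetically for 110 s after a 10 s baseline. A subsequent 4uM final 54-4 (EC80) addition followed by a second 110 s read served as the antagonist phase.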
# TRPV1 PAM: HTS Assay for Compounds that Act as Potentiators of the Vanilloid Receptor 1. potentiation, % at 8.33 µM. 320,000 compounds, 0.02% hits. AID 540277, 2011. Transient receptor potential cation channel subfamily V member 1 (Homo sapiens), Q8NER1. TRPV1-expressing cells, Fluo-8 calcium influx, capsaicin EC20 potentiation; host cell line not named in the record; control for the full effect not named in the record; active means potentiation above 80%; inconclusive means 30% to 80%; inactive means below 30%; note: 0% is about no effect
#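 Fluo-8 calcium influx in TRPV1-expressing cells, kinetic read (ex 480/em 520 nm). Compound added and read 3 min for agonist activity, followed by capsaicin at EC20 final and 2 min further read for enhancement.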
# Menin MLL FP FL: qHTS Assay for Inhibitors Targeting the Menin-MLL Interaction in MLL Related Leukemias: Competition With Fluorescein Labeled MLL-derived Peptide. Fluorescence polarization, fluorescein-MLL peptide displacement from menin. FP activity change, % at 61.4 µM. 290,000 tested, under 10 active. AID 1766, 2009; inconclusive = falling polarisation curve, or a change in total fluorescence; inactive = total fluorescence flat and polarisation flat or rising; no compound was filed as active; the % refers to the polarisation; negative = inhibition;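 note: % of control where 0% means no effect; inhibitors lower the polarisation; unlabelled MLL peptide was the positive control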
# ClpP mod: qHTS Assay for Activators of ClpP. purified B. subtilis ClpP, FRET peptide cleavage, 20 min. Potency, µM (doses to about 57.5 µM), for the others: at the highest dose activity change, negative = active. 340,000 compounds, 1.9% hits. AID 651965, 2013. ATP-dependent Clp protease proteolytic subunit (Bacillus subtilis (strain 168)), P80244; active = well fitted falling curve with a large enough effect; inconclusive = small, poorly fitted or top-dose-only effect; inactive = no such curve, though single readings can be large or run the other way; note: potency is the fitted concentration of half-maximal effect; the source files actives as falling curves though it sought activators and does not explain the sign; nearly all actives have a fitted effect of over 65% in size; many hits overshoot -100%
# Target sequence (P80244 whole entry, looked up): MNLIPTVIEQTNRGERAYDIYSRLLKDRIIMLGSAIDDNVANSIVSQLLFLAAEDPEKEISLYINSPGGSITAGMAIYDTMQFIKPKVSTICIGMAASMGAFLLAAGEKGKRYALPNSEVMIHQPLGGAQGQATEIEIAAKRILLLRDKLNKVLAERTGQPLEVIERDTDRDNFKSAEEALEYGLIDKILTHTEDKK
#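 Buffer: 100 mM Tris/HCl pH8, 100 mM KCl, 0.05% low protease BSA, 2.5% glycerol, 0.01% Tween-20. ClpP 10 microg/mL final; 20 min RT; delta FRET normalized to ADEP and DMSO controls.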
# Numbers without * were called inactive; ? = inconclusive; . = no result given; & = joins results of further samples; [ ] = another dose, or the depositor's remark.
mol	TRPML1 inh	Sfp inh	PINK1 modulator	TRPML1 agonist	TRPV1 PAM	Menin MLL FP FL	ClpP mod
CCc1nn2cc(C(=O)c3ccccc3O)cnc2c1-c1ccc(F)cc1	26	2%	25%	2.8	-3	1.5	-3.8%
CN(C)c1ccc(/C=N/NC(=O)c2ccc3c(c2)OCCO3)cc1	26	14%	4.1%	0.0	1	-6.8	-13%
N#CCCn1ccc(NC(=O)c2ccc(Cl)cc2)n1	9	14%	0.1%	-0.4	-8	-0.2	1.9%
Cc1sc2nc(SCC(=O)N3CCCC3)[nH]c(=O)c2c1C	34	0%	4.9%	-0.8	-11	5.5	-1.2%
CCCn1c(NC(=O)c2ccc([N+](=O)[O-])o2)nc2ccccc21	-12	.	0.6%	-0.6	1	.	-8.2%
CCOc1ccc(CNC(=O)c2ccc3nc(CC)c(CC)nc3c2)cc1OC	-4	.	1.2%	-0.3	.	.	-0.4%
Cc1cc(C)n(CC(O)CN(c2ccccc2)S(=O)(=O)c2ccccc2)n1 (configuration not stated)	6	18%	-1.2%	1.7	3	1.8	-3.2%
O=C(C[C@@H]1C[C@H]2c3cc(NC(=O)Nc4ccccc4F)ccc3O[C@H]2[C@H](CO)O1)NCC(F)(F)F	-10	.	1.6%	0.6	.	.	-4.1%
O=C(CSc1nnc(-c2ccccc2F)o1)N1CCNC1=O	12	.	1.3%	1.4	-7	.	-0.1%
CCC(OC(=O)C1=Cc2ccccc2OC1)C(=O)NCc1ccco1 (configuration not stated)	11	-12%	0.3%	3.7	-4	2.0	-19%
CCCn1c(SCC(=O)NC(C)(C)C)nnc1C(C)C	-1	-5%	-1.7%	0.1	-4	3.6	-1.1%
O[C@@H]1CN(CC2CCCCC2)[C@@H](c2ccc(Cl)cc2)C[C@H]1n1cc(C2CC2)nn1	2	.	-0.6%	0.4	.	.	-0.5%
N#Cc1c(C(F)(F)F)cc(-c2ccco2)nc1SCc1ccccn1	0	?	0.2%[38.3 µM]	7.6	-8	?	32µM*
O=C(Nc1ccc2nsnc2c1)c1cccs1	9	2%	-0.8%	-0.6	-1	4.5	-1.6%
O=C1CN(c2ccc(F)cc2)C(=S)N1c1ccccc1	-24	11%	1.0%	-1.2	12	0.5	-0.2%
CCOc1ccc(CNC(=O)c2cccn2-c2nnc(N3CCCCC3)s2)cc1OC	-11	.	3.3%	-0.9	.	.	-5.7%
COc1ccc(OC)c(Nc2nc(-c3ccncc3)nc3ccccc23)c1	21	-11%	9.6%	2.5	3	0.0	.
O=C(N/N=C/c1ccncc1)c1nn(Cc2ccccc2)c(=O)c2ccccc12	48	11%	3.2%	3.4	3	-0.2	.
O=C(CSc1nnc2ccccn12)NNC(=O)c1ccc(F)cc1	-3	14%	0.5%	0.1	14	-4.6	0.7%
Cc1ccc(-n2[nH]c(C)c(C=NC34CN5CN(CN(C5)C3)C4)c2=O)cc1C	9	16%	1.8%	-0.8	12	1.2	-2.4%

# Overlap with the part before: two compounds, then new ones.
mol	TRPML1 inh	Sfp inh	PINK1 modulator	TRPML1 agonist	TRPV1 PAM	Menin MLL FP FL	ClpP mod
O=C(CSc1nnc2ccccn12)NNC(=O)c1ccc(F)cc1	-3	14%	0.5%	0.1	14	-4.6	0.7%
Cc1ccc(-n2[nH]c(C)c(C=NC34CN5CN(CN(C5)C3)C4)c2=O)cc1C	9	16%	1.8%	-0.8	12	1.2	-2.4%
CCOc1ccc(-c2cc(C(=O)NCC3CCCO3)c3ccccc3n2)cc1 (configuration not stated)	15	-10%	2.9%	-0.1	-21	1.6	?
Cc1cccc(N(C)C(CNS(=O)(=O)c2ccccc2)c2ccccc2)c1 (configuration not stated)	2	.	?	4.4	.	.	-16%
CCOC(=O)c1ccc(NC(=O)CSc2nnc(CNC(=O)c3ccccc3F)o2)cc1	-3	-8%	-0.9%	0.9	3	-7.2	1.4%
CC1=C(c2ccc(Cl)cc2)S(=O)(=O)N=C1N1CCN(c2cc(C)ccc2C)CC1	-6	.	0.6%	0.2	.	.	1.9%
Cc1nn(C)c(C)c1CCC(=O)N1CCCC(Nc2ccc(C(C)C)cc2)C1 (configuration not stated)	19	-8%	-0.9%	-0.9	1	.	1.1%
CCC(C)(C(=O)NC1CCCC1)N(Cc1cccs1)C(=O)Cc1cccs1 (configuration not stated)	-5	6%	-2.7%	2.1	-13	5.0	-1.1%
O=C(CN1C(=O)NC2(CCCCC2)C1=O)Nc1ccc2[nH]c(=O)[nH]c2c1	3	.	0.4%	-0.3	-1	.	-2.7%
Cc1ccc(C)c(S(=O)(=O)N2CCN(Cc3ccc(O)c4ncccc34)CC2)c1	1	18%	-0.7%	3.1	-4	-6.2	.
COc1ccc(CNCc2cc3c(C(C)(C)C)nn(-c4ccccc4)c3[nH]c2=O)cc1	11	11%	2.4%[38.3 µM]	0.5	-12	5.1	-3.4%
CN1CCN(CC(=O)N2c3ccccc3C(=O)Nc3cccnc32)CC1	.	4%&-10%&6%&17%&8%	.	.	4	5.6	.
O=S(=O)(NCc1cn2ccsc2n1)c1ccc2c(c1)OCCO2	21	23%	0.9%	-1.3	-6	-3.2	-0.6%
O=C(Nc1cccc(Cl)c1)c1ccc2ncsc2c1	.	3%	-0.2%	.	1	9.3	-3.6%
Cc1csc(SCC(=O)N2CCN(S(=O)(=O)c3ccccc3)CC2)n1	-6	4%	0.9%	1.1	2	-0.5	1.1%
O=C(c1cc(=O)[nH]c2ccccc12)N(Cc1nnc(-c2ccccc2Cl)o1)C1CC1	3	.	2.5%	-0.8	4	.	.
O=S(=O)(Cc1cnc(Cl)s1)c1ccccc1	18	17%	0.0%	-0.7	-4	1.7	-0.7%
N#Cc1ccc(OCC(=O)N/N=C2\CCc3ccccc32)cc1	-4	11%	1.1%	0.3	-7	0.5	-1.5%
CCOC(=O)N1CCc2c(sc3c2c(=O)n(-c2ccc(CC)cc2)c(=O)n3Cc2ccc(F)cc2Cl)C1	-14	.	1.9%	0.1	.	.	1.2%
NS(=O)(=O)c1ccc(NC(=S)Nc2ccc(S(=O)(=O)N3CCCC3)cc2)cc1	7	50µM*	0.9%	-0.4	-1	0.8	.
CCCc1ccc(-c2cc(NC(=O)CSc3nnc(N)s3)n(-c3ccccc3)n2)cc1	-4	14%	-0.2%	-0.6	-11	3.0	.
O=C(Nc1ccccc1N1CCCCC1)c1ccc(F)c(S(=O)(=O)N2CCOCC2)c1	14	.	0.3%	2.5	13	.	.
C=C(c1ccc2nc(NC(=O)OC)[nH]c2c1)c1cccs1	0	.	0.7%	?	.	.	-3.0%
CCOC(=O)N1CCN(C(=O)c2ccc3c(=O)n(-c4cc(OC)ccc4OC)c(=S)[nH]c3c2)CC1	1	-16%	0.8%	0.7	2	0.6	0.4%
O=C(NCCCN1CCOCC1)c1ccc(CSc2ccc(Cl)cc2)cc1	-1	-7%	0.3%	1.2	-1	0.9	0.9%
[O-][n+]1cccc2cccc(O)c21	11	.	-1.1%	-0.2	.	.	.
O=C1OCCC1Sc1nnc(-c2ccccc2Cl)n1Cc1ccccc1 (configuration not stated)	12	0%	?	-0.1	7	.	1.4%
Cc1ccc(-n2c(SCC(=O)N3CCN(c4ccccn4)CC3)nnc2N2CCCC2)cc1	-5	.	-3.4%	0.1	2	.	?
CS(=O)(=O)N1CCCC(C(=O)Nc2ccc(F)cc2)C1 (configuration not stated)	27	21%	0.4%	0.4	9	2.8	-0.2%
CN1CCC(C2(O)c3ccccc3CCc3ccccc32)CC1	-4	7%	-0.3%	-0.8	-6	-6.7	0.7%
O=C(Nc1nc2ccccc2[nH]1)c1cc(F)cc(F)c1	13	19%	2.5%	0.5	-5	-15	.
COc1cccc(CC2(CO)CCCN(Cc3ccc(CN4CCCCC4)s3)C2)c1 (configuration not stated)	-8	-1%	1.8%	0.1	10	-6.3	2.6%
O=C(CN1CCCC1)NCc1ccccc1	-4	14%	0.8%	-0.4	-15	-1.6	0.2%
Cn1c(=O)c2c([nH]c(=O)n2C)n(Cc2ccccc2)c1=O	-3	.	2.0%	0.4	.	.	.
S=c1[nH]cc(-c2ccc(Cl)cc2)n1Cc1ccccc1	.	-6%	2.9%	.	-1	2.3	-8.0%
Cc1cc(C)c2[nH]c(=O)c(CN(CC3CCCO3)C(=O)c3cnccn3)cc2c1 (configuration not stated)	-6	9%	-1.7%	-1.1	-9	-0.2	-5.3%
CCCOc1ccc(C2c3c(oc4ccccc4c3=O)C(=O)N2c2ccc(C)cn2)cc1OCC (configuration not stated)	-11	.	5.4%	0.4	.	.	-0.3%
Cn1c(=O)c2cc(NC(=O)NCCc3cccs3)ccc2n1Cc1cccc(C(F)(F)F)c1	.	.	2.3%	-1.1	.	.	4.9%
CCc1sc(C(=O)Nc2ncccc2O)cc1C	8	?	7.8%	0.7	-13	.	-3.1%
Cc1ccc(NC(=O)COC(=O)C2C3CC4OC(=O)C2C4C3)cc1Cl (configuration not stated)	-2	25%	0.0%	1.7	-12	-0.7	.

# Four of the entries above in order of the Sfp inh value, highest first.
molecule,Sfp inh
Cc1ccc(NC(=O)COC(=O)C2C3CC4OC(=O)C2C4C3)cc1Cl (configuration not stated),25%
CN1CCC(C2(O)c3ccccc3CCc3ccccc32)CC1,7%
S=c1[nH]cc(-c2ccc(Cl)cc2)n1Cc1ccccc1,-6%
CCOC(=O)N1CCN(C(=O)c2ccc3c(=O)n(-c4cc(OC)ccc4OC)c(=S)[nH]c3c2)CC1,-16%
